HCMV NEC inh – cytomegalovirus nuclear egress complex inhibition; HTRF UL50-UL53 interaction, normalized percent inhibition; inhibition, % (no concentration beside the values); actives 0.15% (n = 190,000);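 active = both replicates at 50% or more, plus weaker picks with an unusually low signal ratio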;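 note: stock transfer was 100 nL into about 20 µL; 0% = negative control wells and 100% = wells with untagged competitor protein; inactives centre near -12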
GIV-Gai inh – blocks GIV peptide binding to rat Galpha-i3; Galpha-i3/FITC-GIV peptide fluorescence polarization, 90 min; hits give low values; scaled: aluminum fluoride 0%, vehicle 100%; percent of control (FP), % (test concentration not listed); actives 0.42% (n = 210,000); AID 1224905;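 active = replicate mean at 85% of control or lower, very high polarization wells dropped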;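 note: wells of about 15 µL received 100 nL stock; the first replicate is given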
Target sequence (P08753 whole entry, looked up): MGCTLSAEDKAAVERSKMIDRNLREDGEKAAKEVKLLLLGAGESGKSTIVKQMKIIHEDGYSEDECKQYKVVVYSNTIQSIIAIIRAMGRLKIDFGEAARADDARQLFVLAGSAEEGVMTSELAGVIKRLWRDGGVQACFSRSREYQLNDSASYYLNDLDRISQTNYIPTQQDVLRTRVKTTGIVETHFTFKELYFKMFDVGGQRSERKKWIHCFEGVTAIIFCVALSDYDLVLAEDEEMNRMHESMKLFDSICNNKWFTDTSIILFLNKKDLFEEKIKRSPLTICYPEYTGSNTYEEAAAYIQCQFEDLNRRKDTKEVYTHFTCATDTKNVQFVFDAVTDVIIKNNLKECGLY
Sa growth inh – blocks Staphylococcus aureus growth. actives 0.53% (n = 170,000). AID 720641. S. aureus RN4220 growth, OD600, 20 h, 42 °C; hits give low values. relative growth, % (no concentration beside the values);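 active = growth at 42 °C up to 50% and 20 or more points under that at 30 °C, or under 10% at both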;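 note: 300 nL library stock went into each well; scaled to the means of positive and negative controls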
Sa growth inh second temp – also measured in Sa growth inh; calls as there; relative growth, %; measured here: growth at 30 °C;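 optical density after 20 h as mean of two plates; 100% = untreated growth and lower means inhibition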
* marks the source's active call; other numbers are inactive results; nt = not tested or not shown; & = joins results of further samples; ! = not confirmed by another sample.

SMILES	HCMV NEC inh	GIV-Gai inh	Sa growth inh	Sa growth inh second temp
Cc1onc(-c2ccccc2Cl)c1-c1nc2ccc(I)cc2c(=O)o1	-12	100	85	87
CC1Cc2ccccc2N1S(=O)(=O)c1cccc(C(=O)C(C#N)c2ccccn2)c1 (stereo not given)	-8	nt	93	85
Cn1c(=NC(=O)c2ccc(F)cc2)sc2cc(Br)ccc21	nt	102	107	96
Cc1ccc(N/C=C2\C(=O)N(c3ccc(F)cc3F)C(c3cccnc3)S2(=O)=O)cc1 (stereo not given)	2	99	111	113
COCCN(Cc1ccccc1)S(=O)(=O)c1ccccc1OC	-20	nt	93	86
Cc1cc(C)cc(-n2c(C)cc(C(=O)C(=O)Nc3ccccc3F)c2C)c1	1	101	100	96
Cc1ccc(-c2nc(NC(=O)CSc3cc(C)c4ccccc4n3)ns2)cc1	-174	105	100	96
CCc1ccc(NC(=O)CN2C(=O)c3ccccc3S2(=O)=O)cc1	-16	102	97	89
COC(=O)Cc1ccc2sc(-c3ccccc3)nc2c1	-19	nt	88	93
Cc1ccc(N2C(=N)S/C(=C\c3ccccc3OCC(=O)O)C2=O)cc1Cl	-61	104	nt	nt
CCN=PN1CCN(P(=NCC)(N(CC)CC)N(CC)CC)CC1 (stereo not given)	2	nt	83	98
COC(=O)c1cc2oc3ccccc3c2n1CC(=O)NCc1ccco1	0	112	101	79
Nc1nc(-c2nc3ccccc3[nH]2)cs1	-8	109	72	87
Cc1nn2c(=O)cc(COC(=O)c3ccccc3NC(=O)c3ccccc3C)nc2s1	nt	107	99	96
O=C1NN=CC(c2ccccc2)(c2c[nH]c3ccccc23)N1 (stereo not given)	nt	100	124	100
CCCCOc1ccc(CNC(=O)c2cnc3sc(N4CCOCC4)nn3c2=O)cc1	nt	105	101	88
CCOC(=O)c1ccc(NC(c2cccnc2)c2ccc3cccnc3c2O)cc1 (stereo not given)	-42	99	nt	nt
O=C1c2ccccc2C(=O)N1CC#CCN1CCN(CC#CCN2C(=O)c3ccccc3C2=O)CC1	-13	104	95	86
O=C(Nc1ccccc1)n1ncc2ccccc21	8	108	nt	nt
N#CCCn1c(C2CCCCC2)nc2ccccc21	-7	nt	93	77
CC(C)n1cnc2nc(CSc3ccc(NC(=O)Nc4ccc(F)c(Cl)c4)cc3)cc(=O)n21	-7	109	nt	nt
COc1ccc(C=Nc2ccc(NC(=O)c3ccccc3O)cc2)cc1	-1	105	93	95
COc1cccc(CNC(=O)C2CCN(Cc3cc4ccccc4n3Cc3ccccc3)CC2)c1OC	nt	104	134	84
Cc1cc2nnc(SCC(=O)Nc3ccc(F)c(Cl)c3)n2c2ccccc12	-20	102	104	82
CCCCNC(=O)c1nn(-c2ccc(C)cc2)c(=O)c2c1c1ccccc1n2C	-15	98	108	92
Cc1nn(-c2ccc(-c3noc(C4CC4)n3)cc2)cc1C(=O)N1CCn2c1nc1ccccc12	-35	101	nt	nt
CCOC(=O)C[n+]1ccccc1C	nt	98	109	100
CCOc1ccc(NC(=O)N2CCC(c3ccc(C)cc3)C2)cc1 (stereo not given)	nt	99	120	87
COc1ccccc1-n1cnnc1SC(C)C(=O)NCCC1=CCCCC1 (stereo not given)	4	nt	119	95
C(=C\c1ccccc1)/CNCCN1CCOCC1	0	100	104	88
COc1ccc(C(CC(=O)Nc2cccc(C)c2C)N2Cc3ccccc3C2=O)cc1 (stereo not given)	nt	99	107	85
N#Cc1cc(C(=O)c2ccccc2O)cn2c(=O)c3ccccc3nc12	-52	nt	71	54
Cc1cc(OC(C)C(=O)Nc2ncn[nH]2)ccc1Cl (stereo not given)	-26	97	118	97
O=C(COc1ncnc2ccccc12)Nc1cccc(C(F)(F)F)c1	-44	nt	101	88
O=C1NNC(c2ccccc2)=N/C1=C\c1ccco1	-46	120	76	45
O/N=C/C1=C(Cl)c2cc(Cl)ccc2SC1	-1	96	87	102
CCOC(=O)c1ccc(N=C2SC(C(=O)Nc3cccc(Cl)c3)CC(=O)N2C)cc1 (stereo not given)	-32	101	nt	nt
CN1N=C(c2ccc3ccccc3c2)CC1c1ccc(F)cc1 (stereo not given)	-31	104	103	89
CCN(CC)CCOc1ccc(/C(=C(/Cl)c2ccccc2)c2ccccc2)cc1	-30&-9	104	90	62
Cc1ccc(CNC(=O)c2cn(C)c3ccc(S(=O)(=O)N4CCC(C)CC4)cc3c2=O)cc1	-27	102	98	93
CC1(C)CC(Nc2ccc(Nc3ccccc3)cc2)CC(C)(C)N1	-3	100	113	77
CC(CNC(=O)c1nnc(Cc2ccc(F)cc2)o1)c1ccccc1 (stereo not given)	-4	100	115	104
COc1ccccc1C(=O)Nc1ccc(-c2nc3c(ccc4ccccc43)o2)cc1	-17	101	nt	nt
COc1ccc(-n2c(SCC(=O)NC(C)(C)C)nc3ccccc32)cc1	-10	nt	99	99
CCC(Oc1ccccc1)C(=O)Nc1nnc(S(=O)(=O)N2CCCC2)s1 (stereo not given)	8	104	128	95
CCOc1ccccc1CNS(=O)(=O)c1ccc(-c2cnc(C3CC3)o2)cc1	nt	99	99	91
O=C1c2ccccc2C(O)(Cc2ccccc2)N1C1CCCCC1 (stereo not given)	-4	99	105	95
CC(=O)N1c2ccc(S(=O)(=O)N3CCCCC3)cc2CC1C (stereo not given)	nt	105	112	90
Cc1csc2ncc(C(=O)N3CCN(c4ccccc4F)CC3)c(=O)n12	-13	101	nt	nt
CCOC(=O)C1(C)NC(c2ccc(F)cc2)C2C(=O)N(CC)C(=O)C21 (stereo not given)	-13	104	115	89

(further entries)
SMILES	HCMV NEC inh	GIV-Gai inh	Sa growth inh	Sa growth inh second temp
COc1cc(/C=N/NC(N)=O)cc2sc(=O)oc12	-20	99	89	73
N#CC1=C(N)N2CCCSC2=C(C#N)C1c1ccccc1 (stereo not given)	-28	nt	103	87
Nc1nnc(SCC(=O)N2CCCCCC2)s1	-24	nt	89	83
Cc1ccc2c(COC(=O)Cn3c(C)csc3=O)cc(=O)oc2c1C	-30	nt	94	82
Cc1ccc(C)c(NC(=O)CSc2nc3nccnc3c(=O)n2CCc2c[nH]c3ccccc23)c1	-20	103	110	80
CC(=O)NS(=O)(=O)c1ccc(NC(=O)C(C)NS(=O)(=O)/C=C/c2ccccc2)cc1 (stereo not given)	-32	nt	63	98
CC(Sc1nc2sc3c(c2c(=O)n1Cc1ccco1)CCC3)c1nc2ccccc2c(=O)[nH]1 (stereo not given)	-15	nt	74	54
CCC1CCCCN1C(=O)CSc1nnc(-c2cccnc2)n1-c1ccc(OC)cc1 (stereo not given)	3	108	78	87
CCSc1ncc(Cl)c(C(=O)Nc2ccc(S(=O)(=O)N3CCC(C)CC3)cc2)n1	-2	99	109	83
O=S(=O)(c1cc(F)ccc1F)N1CCN(c2nc3cccnc3s2)CC1	0	105	nt	nt
O=C(Nc1ccc(Cl)cn1)c1c2c(nc3ccccc13)C(=O)N(C1CCCCC1)C2	-28	105	nt	nt
CCCCc1nc2sc3c(=O)n(N)cnc3c2c2c1CCC2	10	113	96	104
Cc1ccnn1CCC(=O)O	4	107	103	92
Cc1ccc(NC(=O)Cn2cnc3c(sc4ncccc43)c2=O)c(Cl)c1	-3	103	nt	nt
CC(COc1ccccc1)N(CCCl)Cc1ccccc1 (stereo not given)	89*!	99	85&98	84&93
CCOc1ccccc1NC(=O)c1sc(-n2nc(C)c(CCC(C)C)c2C)nc1C	10	99	96	91
Cn1c(C(=O)N2CCCCC2)cc2c(=O)[nH]c3ccccc3c21	1	98	135	93
CC(C)OC(=O)c1cnn2c(C(F)(F)F)cc(-c3ccccc3)nc12	-53	105	nt	nt
COc1cc(C)c(C(=O)CCC(=O)O)cc1C	-19	100	94	87
CCN(CC)N=Nc1ccc(S(=O)(=O)N2CCSC2C(=O)O)cc1 (stereo not given)	-1	99	74	112

Limited to Sa growth inh second temp, for some of the entries so far:
SMILES | Sa growth inh second temp
COc1cc(C)c(C(=O)CCC(=O)O)cc1C | 87
CCCCc1nc2sc3c(=O)n(N)cnc3c2c2c1CCC2 | 104

(listing goes on)
SMILES	HCMV NEC inh	GIV-Gai inh	Sa growth inh	Sa growth inh second temp
CCOC(=O)c1c(C)[nH]c(C(=O)CSc2nc(C)nc3sc4c(c23)CCC4)c1C	-5	103	nt	nt
Cc1cc2n(n1)CC(C)(C(=O)NCc1ccc(F)cc1)N(c1ccc3c(c1)OCCO3)C2=O (stereo not given)	19	104	nt	nt
O=C(NC(=S)Nc1nn[nH]n1)C1CCCCC1	-36	102	72	83
C=C(C)Cc1c(COC)nc(SC)[nH]c1=O	-12	98	100	86
Cc1ccc(CNS(=O)(=O)c2ccc(-c3nnc(C4CCC4)o3)s2)o1	-45	107	nt	nt
CC(C)(C)c1csc(Cc2ccc(-c3csnn3)cc2)n1	nt	105	95	91
CC(C)=CC(=O)N1CCN(c2cccc(C(F)(F)F)c2)CC1	-24	nt	85	80
COc1ccc2[nH]cc(CCN3C(=O)c4ccccc4C3=O)c2c1	nt	102	117	71
COc1ccc2nc(Cl)c(/C=N/NC3CCS(=O)(=O)C3)cc2c1 (stereo not given)	-84	nt	84	88
OCCNC(=S)Nc1ccc(-c2n[nH]c(=S)o2)cc1	-7	102	nt	nt

Two entries from above, with two lines to a compound.
Fields – HCMV NEC inh | GIV-Gai inh | Sa growth inh | Sa growth inh second temp
COc1ccc2nc(Cl)c(/C=N/NC3CCS(=O)(=O)C3)cc2c1 (stereo not given)
→ -84 | nt | 84 | 88
CC(C)(C)c1csc(Cc2ccc(-c3csnn3)cc2)n1
→ nt | 105 | 95 | 91

(listing goes on)
SMILES	HCMV NEC inh	GIV-Gai inh	Sa growth inh	Sa growth inh second temp
O=c1oc2cc(S(=O)(=O)N3CCCC3)ccc2n1Cc1noc(C2CC2)n1	-19	107	nt	nt
COc1ccc(C)cc1N(CC(=O)Nc1ccc(-c2nc3ccc(C)cc3s2)cc1)S(C)(=O)=O	-13	104	nt	nt
CC(CCc1ccccc1)NC(=O)COc1ncnc2ccccc12 (stereo not given)	-4	nt	109	87
O=C(Nc1ccc2nn(-c3ccc(F)cc3)nc2c1)c1cccc2c(Cl)cccc12	-9	114	105	102
COc1cccc(Oc2nnnn2-c2ccccc2)c1	-5	105	118	91
COc1ccc(/C=C/C(=O)Nc2ccc3nc(N4CCCCC4)cc(C)c3c2)cc1	nt	105	106	87
O=C(CNc1ccc(Cl)cc1)NCC1CCCO1 (stereo not given)	-28	nt	89	91
Cc1cccc(OCCSc2nc(-c3cccs3)nc3cc(=O)[nH]n23)c1	nt	100	87	91
Cc1nn(C(C)C(=O)N2CCN(c3ccc(Cl)cc3)CC2)c(=O)c2cc3occc3n12 (stereo not given)	-10	102	104	55
Cc1ccc(-c2nnc(SCc3ccccc3F)o2)cc1	-32	97	77	65

Of the compounds above, 2 have a tert-butyl group.
SMILES	HCMV NEC inh	GIV-Gai inh	Sa growth inh	Sa growth inh second temp
COc1ccc(-n2c(SCC(=O)NC(C)(C)C)nc3ccccc32)cc1	-10	nt	99	99
CC(C)(C)c1csc(Cc2ccc(-c3csnn3)cc2)n1	nt	105	95	91

Going on with the list:
SMILES	HCMV NEC inh	GIV-Gai inh	Sa growth inh	Sa growth inh second temp
COc1ccc2[nH]c3c(=O)n(CCCCC(=O)N4CCN(c5ncccn5)CC4)c(=S)[nH]c3c2c1	-16	102	97	89
CNc1ncc(C(=O)c2ccccc2)s1	-53	107	nt	nt
CCCNC(=O)c1cc(=O)n(Cc2ccc(Cl)cc2)c2ccccc12	nt	100	94	90
O=C1OC(c2ccccc2)=C/C1=C/c1ccccc1	1	99	-0.6*	8.5*
COc1ccccc1NC(=O)CSc1nc2ccccc2c2nc3ccccc3n12	5	113	103	105
CCC(=O)N1CCc2cc(S(=O)(=O)NC(C(=O)Nc3cc(OC)cc(OC)c3)C(C)C)ccc21 (stereo not given)	3	104	100	96
NNc1nc2sc3c(c2c(=O)[nH]1)CCCC3	-49	106	90	78
CCOC(=O)N1CCN(C(=O)C2CCC(=O)N(c3ccc(OC)cc3)C2c2ccc(F)cc2)CC1 (stereo not given)	2	97	105	93
CN(C)C(=O)CSc1nc2cc(S(=O)(=O)N3CCOCC3)ccc2o1	-12	nt	96	79
COc1ccc(CNC(=O)C2CCCN(C(=O)N3CCOc4ccccc43)C2)cc1 (stereo not given)	2	108	88	81
CCn1cnc2cc(NCc3ccc(N(C)C)cc3)ccc21	-9	105	108	100
CCOC(=O)c1c(C)c(-c2ccccc2)n(CC(=O)Nc2cc(C)ccc2OC)c1C	-14	101	91	85
CNC(=O)N1CCc2cc(S(=O)(=O)NC3CC3)ccc21	7	101	nt	nt
CCOc1ccccc1-c1cc(NC(=O)Cn2ncc3c(=O)oc4ccc(C)cc4c32)on1	-1&-4	100&105	101	89
O=C1CC(Sc2ccc(Cl)cc2)C(=O)N1c1ccc(Br)cc1 (stereo not given)	-17	nt	97	69
Cc1cccc(-c2noc(-c3cc(C(C)C)[nH]n3)n2)c1	nt	106	123	98

5 structures already listed, arranged by length of the SMILES, largest number first.
SMILES	HCMV NEC inh	GIV-Gai inh	Sa growth inh	Sa growth inh second temp
CCOc1ccccc1-c1cc(NC(=O)Cn2ncc3c(=O)oc4ccc(C)cc4c32)on1	-1&-4	100&105	101	89
COc1ccc(CNC(=O)C2CCCN(C(=O)N3CCOc4ccccc43)C2)cc1 (stereo not given)	2	108	88	81
Cc1cccc(-c2noc(-c3cc(C(C)C)[nH]n3)n2)c1	nt	106	123	98
CNC(=O)N1CCc2cc(S(=O)(=O)NC3CC3)ccc21	7	101	nt	nt
CCn1cnc2cc(NCc3ccc(N(C)C)cc3)ccc21	-9	105	108	100

Screening data from PubChem BioAssay.

No enrichment for hits. About 0.83% of those tested had a hit in this group.
